# Compound activity: PubChem BioAssay, National Center for Advancing Translational Sciences (NCATS)
# TRHR enhancer – TRH receptor (human) allosteric enhancement; P34981; TRHR cells, fluo-8 calcium fluorescence, EC20 TRH enhancement; enhancement, % at 2 µM; actives 0.66% (n = 360,000); AID 493056; in the data active means enhancement above about 30%; further: 0% is about no effect
# Target sequence (P34981 whole entry, looked up): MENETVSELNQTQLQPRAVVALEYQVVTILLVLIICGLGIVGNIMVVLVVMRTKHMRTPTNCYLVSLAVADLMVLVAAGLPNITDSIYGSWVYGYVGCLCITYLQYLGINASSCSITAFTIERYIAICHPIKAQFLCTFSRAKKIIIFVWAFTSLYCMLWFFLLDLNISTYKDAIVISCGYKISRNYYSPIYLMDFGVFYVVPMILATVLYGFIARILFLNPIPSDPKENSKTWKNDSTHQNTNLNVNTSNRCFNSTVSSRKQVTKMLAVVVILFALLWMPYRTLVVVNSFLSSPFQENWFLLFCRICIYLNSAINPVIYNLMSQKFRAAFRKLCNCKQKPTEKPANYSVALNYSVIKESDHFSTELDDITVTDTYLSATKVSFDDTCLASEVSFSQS
#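 Enhancer read-out: after compound pinning and an initial kinetic agonist-mode read, an EC20 of TRH (10 nM final) was injected and fluo-8 calcium signal (Ex 480/Em 530) followed at 1 s/cycle for 100 cycles in TRHR-expressing cells.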
# D2 antagonist – antagonizes the human D2 dopamine receptor. P14416. HEK293 TREx D2 cells, calcium flux, dopamine EC80. inhibition, % at 10 µM. actives 2% (n = 340,000). AID 485344; in the data active means inhibition above about 30%; further: 0% is about no effect
# Target sequence (P14416 whole entry, looked up): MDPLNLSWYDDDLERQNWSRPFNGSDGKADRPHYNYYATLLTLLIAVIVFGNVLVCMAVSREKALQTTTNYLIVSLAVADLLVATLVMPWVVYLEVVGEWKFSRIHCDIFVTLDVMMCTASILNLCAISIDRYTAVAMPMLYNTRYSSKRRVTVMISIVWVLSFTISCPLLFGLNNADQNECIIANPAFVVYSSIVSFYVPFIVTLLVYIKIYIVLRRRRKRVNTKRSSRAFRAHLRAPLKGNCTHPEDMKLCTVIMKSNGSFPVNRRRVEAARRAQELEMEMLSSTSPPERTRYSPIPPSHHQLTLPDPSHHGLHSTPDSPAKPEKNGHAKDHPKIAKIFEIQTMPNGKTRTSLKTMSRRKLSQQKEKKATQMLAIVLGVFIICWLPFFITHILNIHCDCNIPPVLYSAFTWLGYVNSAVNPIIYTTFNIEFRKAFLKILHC
#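 Tetracycline-induced HEK293 TREx cells expressing D2 receptor forced-coupled to calcium signalling, loaded with no-wash calcium dye. Compounds added and calcium flux read 180 s, then dopamine added at EC80 and read a further 180 s.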
# D2 agonist – agonists of human D2 dopamine receptor; HEK293 T-REx D2 cells, calcium flux agonist mode; P14416; activation, % at 2 µM; AID 485358; actives 0.53% (n = 340,000);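 active means activation over 3 SD above normal in the single-dose calcium agonist read, cut at about 30% in these data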; further: 0% is about no effect
#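 In this primary screen, compounds producing a positive calcium signal within 180 s of addition to tetracycline-induced, force-coupled HEK293 Trex D2 cells are flagged; cells are dye-loaded with a no-wash calcium kit beforehand.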
# D1 potentiator – enhances dopamine response at the human D1 receptor | HEK293 TREx D1 cells, calcium flux, dopamine EC20 potentiation | AID 504651 | P21728 | actives 0.036% (n = 360,000) | potentiation, % at 10 µM; in the data active means potentiation above about 30%; further: 0% is about no effect
# D1 antagonist – antagonists of human D1 dopamine receptor | P21728 | HEK293 TREx D1 cells, calcium flux, dopamine EC80; active compounds read low | activity change, negative = inhibition, % at 10 µM | actives 3.2% (n = 360,000) | AID 504652; in the data active means activity change below about -30%; further: on the % scale 0 is the no-effect control and ±100 the full control effect
#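 HEK293 T-REx cells expressing inducible, force-coupled D1 receptor; no-wash Ca dye, 30–90 min RT. Cmpd → 180 s read at 1 Hz → EC80 DA → 180 s read.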
# D2 potentiator – D2 dopamine receptor (human) potentiation; HEK293 T-REx D2, calcium flux, EC20 dopamine potentiation; potentiation, % at 10 µM; actives 0.34% (n = 340,000); AID 485347;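 active means potentiation over 3 SD above the plate norm, cut at about 30% in these data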; further: 0% is about no effect
#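 Potentiation of an EC20 dopamine calcium response is measured in a force-coupled, tetracycline-inducible Hek293 Trex D2 line. Compound-only kinetic reads over 180 s flag agonists before dopamine addition.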
# D1 agonist – activates the human D1 dopamine receptor; actives 1% (n = 360,000); HEK293 T-REx D1 cells, calcium flux, agonist mode; activation, % at 2 µM; P21728; in the data active means activation above about 30%; further: 0% is about no effect
#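 Agonism was scored from calcium flux recorded over 180 s (1 read/s) after pintool compound addition, following a 10-cycle baseline. Cells were inducible force-coupled HEK293 TREx D1, plated overnight at 30 C and loaded with no-wash calcium dye.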
# * marks the source's active call; other numbers are inactive results; · = no result given; & = joins results of further samples. A portion of the library (hit frequency here may not be typical).
# The first eleven entries, to show the layout:
No.	mol	TRHR enhancer	D2 antagonist	D2 agonist	D1 potentiator
1	CCc1ccccc1NC(=O)c1nc(-c2ccncc2)no1	12	·	0.7	2
2	O=S(=O)(c1ccc2nc(N3CCN(c4ccccc4)CC3)ccc2c1)N1CCCCC1	0&12	7	-0.1&-0.2	-3&-4
3	O=C(Nc1ccncc1)c1cc(-c2ccccn2)nc2ccc(Br)cc12	4	9	-0.2	-2
4	O=C(NC1(C(F)(F)F)C(=O)Nc2c1c(=O)[nH]c(=O)n2-c1ccccc1)c1cccnc1 (stereo not drawn)	2	1	0.6	-2
5	O=C(NCc1ccc(Cl)cc1)c1ccc(COCC(F)(F)F)o1	-10	-15	-0.7	-4
6	CCOc1ccc2oc(=O)cc(CN3CCN(c4ccccc4)CC3)c2c1	2	·	·	0
7	C1CCC(n2nnnc2CN2CCN(C3CCCC3)CC2)CC1	-3	-1	0.2	3
8	Cc1ccccc1OCC(=O)Nc1ccc(C(=O)OCc2cc(=O)n3c(C)csc3n2)cc1	0	·	2.3	0
9	CCC(C(=O)NCCN1CCOCC1)n1nc(C)n2c(cc3sccc32)c1=O (stereo not drawn)	4	12	0.6	-3
10	Oc1ccccc1-c1nc(NCC2CCCO2)c2ccccc2n1 (stereo not drawn)	1	-2	-0.2	0
11	S=c1[nH]c2ccccc2n2cccc12	-5	-6	-1.1	4

No.	D1 antagonist	D2 potentiator	D1 agonist
1	1	-3	-2
2	-12&10	1&-3	0&4
3	-20	-8	1
4	-1	2	4
5	2	7	2
6	2	-28	1
7	6	-14	0
8	-1	5	8
9	0	7	1
10	0	11	1
11	12	-3	3

# This part in full, from the start:
No.	mol	TRHR enhancer	D2 antagonist	D2 agonist	D1 potentiator
1	CCc1ccccc1NC(=O)c1nc(-c2ccncc2)no1	12	·	0.7	2
2	O=S(=O)(c1ccc2nc(N3CCN(c4ccccc4)CC3)ccc2c1)N1CCCCC1	0&12	7	-0.1&-0.2	-3&-4
3	O=C(Nc1ccncc1)c1cc(-c2ccccn2)nc2ccc(Br)cc12	4	9	-0.2	-2
4	O=C(NC1(C(F)(F)F)C(=O)Nc2c1c(=O)[nH]c(=O)n2-c1ccccc1)c1cccnc1 (stereo not drawn)	2	1	0.6	-2
5	O=C(NCc1ccc(Cl)cc1)c1ccc(COCC(F)(F)F)o1	-10	-15	-0.7	-4
6	CCOc1ccc2oc(=O)cc(CN3CCN(c4ccccc4)CC3)c2c1	2	·	·	0
7	C1CCC(n2nnnc2CN2CCN(C3CCCC3)CC2)CC1	-3	-1	0.2	3
8	Cc1ccccc1OCC(=O)Nc1ccc(C(=O)OCc2cc(=O)n3c(C)csc3n2)cc1	0	·	2.3	0
9	CCC(C(=O)NCCN1CCOCC1)n1nc(C)n2c(cc3sccc32)c1=O (stereo not drawn)	4	12	0.6	-3
10	Oc1ccccc1-c1nc(NCC2CCCO2)c2ccccc2n1 (stereo not drawn)	1	-2	-0.2	0
11	S=c1[nH]c2ccccc2n2cccc12	-5	-6	-1.1	4
12	Cc1nc2ccccc2c2oc(C(=O)Nc3ccc4c(c3)OCCO4)cc12	13	-9	1.1	·
13	O=c1c(=O)n(-c2ccccc2)ccn1Cc1cccc(C(F)(F)F)c1	-3	·	12	-3
14	Cc1ccc2nc(N3C(=O)C(O)=C(C(=O)c4ccc(C)o4)C3c3cccc(O)c3)sc2c1 (stereo not drawn)	-2	-9	2.0	-4
15	CC(=O)c1c(C)[nH]c(C(=O)Nc2ccc(F)c(F)c2F)c1C	-3	8	-0.6	-1

No.	D1 antagonist	D2 potentiator	D1 agonist
1	1	-3	-2
2	-12&10	1&-3	0&4
3	-20	-8	1
4	-1	2	4
5	2	7	2
6	2	-28	1
7	6	-14	0
8	-1	5	8
9	0	7	1
10	0	11	1
11	12	-3	3
12	19	-4	0
13	0	-13	4
14	-35*	12	4
15	10	-3	10

# The listing continues:
No.	mol	TRHR enhancer	D2 antagonist	D2 agonist	D1 potentiator
16	Fc1ccc(-c2nnn3c2nc(NCc2ccccc2)c2ccccc23)cc1	8&-4	5	0.3&1.0	3&0
17	CCOc1cc2[nH]c(=S)n(CCCN3CCCC3=O)c(=O)c2cc1OCC	2	8	-1.6	-4
18	CCOC(=O)N1CCN(C(=O)CSc2ccc3nnc(-c4ccncc4)n3n2)CC1	0	-10	0.2	-1
19	CC(=O)c1ccc(NC(=O)c2cnsn2)cc1	-8	20	-2.0	-1
20	CCCN1CCN(C(=O)CCCNC(=O)Cn2cnc3sc(C)c(C)c3c2=O)CC1	1	2	-0.7	-2
21	CC(=O)c1ccc(NC(=O)c2ccc3c(c2)nnn3C2CCCC2)cc1	-4	·	0.3	-5
22	Cc1cc(-c2csc(NC(=O)c3ccc(C#N)cc3)n2)c(C)n1Cc1ccco1	0	11	0.5	-1
23	CCCOC(=O)c1ccc(OC(=O)c2ccco2)cc1	3	-15	1.0	-4
24	O=C(NNC(=O)c1cc(F)c(F)cc1Cl)c1ccc(NS(=O)(=O)c2cccs2)cc1	4	-3	-0.3	-11
25	O=C1CC(N2CCC(c3nc4ccccc4[nH]3)CC2)C(=O)N1Cc1ccccc1 (stereo not drawn)	7	-12	0.1	-1
26	CCOc1ccc(N2CC(C(=O)N3CCN(C(=O)c4ccco4)CC3)CC2=O)cc1 (stereo not drawn)	12	-17	-3.1	-2
27	COc1ccc(NC(=O)CSc2cc(-c3ccccc3)nc(C)n2)cc1	4	·	-2.2	1
28	CCOc1ccc(C(=O)C(CN2CCOCC2)c2ccccc2)cc1 (stereo not drawn)	-6	11	0.2	-8
29	COc1ccccc1CNC(=O)CCCn1nc(C)n2ccnc2c1=O	6	2	0.2	-9
30	Nc1c(-c2ccc(F)cc2)cnn1C1CCS(=O)(=O)C1 (stereo not drawn)	4	10	0.0	-4

No.	D1 antagonist	D2 potentiator	D1 agonist
16	3&13	-1&-2	1&0
17	-1	3	-1
18	6	5	0
19	-7	5	1
20	23	7	1
21	18	8	5
22	-17	-9	3
23	-1	2	1
24	-15	9	3
25	-17	10	0
26	11	·	0
27	5	-4	0
28	6	2	0
29	16	1	1
30	-3	11	0

# Carrying on.
No.	mol	TRHR enhancer	D2 antagonist	D2 agonist	D1 potentiator
31	O=C(c1ccco1)N1CCN(c2nc(C3CC3)nc3sc4c(c23)CCCC4)CC1	4	-1	-1.8	3
32	Cc1nc(-c2ccncc2)sc1C(=O)Nc1ccc(Br)cc1	2	-38	-0.3	-5
33	Cc1nc2ccccc2n1C(=O)c1cc(-c2ccc(Br)cc2)nc2ccccc12	-1	9	-0.1	-1
34	CCC(=O)N(CCC(c1ccco1)C(C)C)Cc1ccccc1 (stereo not drawn)	-10	-23	0.9	-2
35	CCOc1ccc(-n2nc3ccc(NC(=O)COc4ccccc4)cc3n2)cc1	1	·	1.1	-2
36	CCOC(=O)c1cnc(SCC)[nH]c1=O	3&-1	-11&-2	2.5&-0.5	-2&1
37	CC(=O)c1sc2nc(SCC(=O)NCCc3ccccc3)[nH]c(=O)c2c1C	-2	-1	-0.2	-2
38	CCOC(=O)c1cc(C(C)=O)c(=O)[nH]c1C	1	7	1.2	4
39	COc1cc(C(=O)Nc2ccc(O)cc2)ccc1OC(C)=O	0	0	0.1	-4
40	CCc1nnc(NC(=O)CSc2nnc(-c3ccc(OC)cc3)n2C)s1	1	-9	-0.6	-6
41	CCn1c(COc2cccc(C)c2)nnc1SCC(=O)Nc1cccc(C(=O)O)c1	-3	-3	0.2	-3
42	COc1ccc(/C=C2/Sc3ccc(C(=O)N4CCOCC4)cc3NC2=O)cc1OC	0	-19	0.1	-4
43	Cc1cc(N2C(=O)C(O)=C(C(=O)c3cc4ccccc4o3)C2c2cccs2)no1 (stereo not drawn)	0	-10	1.7	2
44	O=C(c1ccc(F)cc1)C(CN1CCOCC1)c1ccccc1 (stereo not drawn)	-2	-3	-0.3	3
45	Cc1ccc(C2/C(=C(\O)c3ccc4c(c3)OCCO4)C(=O)C(=O)N2Cc2cccnc2)cc1 (stereo not drawn)	0	4	0.5	-1

No.	D1 antagonist	D2 potentiator	D1 agonist
31	3	0	0
32	-4	11	3
33	-5	-3	4
34	-23	12	1
35	-2	0	-1
36	0&7	-4	2&1
37	-7	15	1
38	-13	-1	2
39	-6	11	0
40	-8	4	-3
41	6	4	0
42	-8	16	5
43	-9	7	7
44	-10	0	1
45	10	5	3

# The list continues.
No.	mol	TRHR enhancer	D2 antagonist	D2 agonist	D1 potentiator
46	CSc1ncc(C(=O)Nc2cccc(Cl)c2C)c(-c2ccccc2)n1	20	·	0.5	-3
47	Cc1csc(NC(=O)CSc2ccc(-c3ccc(F)cc3)nn2)n1	-6	5	-1.3	-4
48	CCOc1ccc(CNC(=O)c2sc3ncnc(N(C)C4CCCCC4)c3c2C)cc1	3	·	1.0	0
49	COc1cc(Cl)c(C)cc1NC(=O)c1cn(C2CCCC2)c(=O)c2c1c1ccccc1n2C	9	·	-0.7	0
50	CCCCOc1ccc(C(=O)C(CN2CCOCC2)c2ccccc2)cc1 (stereo not drawn)	0	-2	0.1	15
51	CC(C)NS(=O)(=O)c1cc(F)ccc1CN1C(=O)c2cccnc2C1=O	-1	7	-0.3	-8
52	Cc1ccc(C(=O)c2cn(CC(=O)NCc3ccccc3)c3nc(C)ccc3c2=O)cc1	-9	·	0.5	-4
53	COc1ccc(OC)c(-n2c(-c3cccc(O)c3)n[nH]c2=S)c1	-2	12	-0.2	-6
54	O=C(O)c1ccccc1Sc1ncnc2sc3c(c12)CCC3	43*	-15	-2.6	-2
55	O=C(O)CSc1nc2ccccc2nc1Cc1ccccc1F	3	-2	-0.5	-2
56	CN(C)S(=O)(=O)c1cccc(COC(=O)c2cnccn2)c1	1	4	0.3	-3
57	COC(=O)c1cc2ccsc2n1Cc1ccccc1F	3	-8	-1.7	-1
58	CC(=O)Cc1nsc(NC(=O)c2ccccc2)n1	4	14	-1.5	-4
59	CCOc1cc2[nH]c(=S)n(CCCOC)c(=O)c2cc1OCC	-6	-5	-0.7	3
60	COc1cc(-c2nc3ccccn3c2NCC2CCCO2)ccc1O (stereo not drawn)	8	-4	0.6	6

No.	D1 antagonist	D2 potentiator	D1 agonist
46	-2	-2	-1
47	-7	-3	5
48	-23	8	4
49	4	5	0
50	5	4	2
51	-17	-1	3
52	-4	-5	2
53	3	36*	2
54	18	2	2
55	-1	9	-1
56	19	-7	5
57	0	11	7
58	-8	15	2
59	-7	7	-1
60	-8	4	0

# Going on with the list.
No.	mol	TRHR enhancer	D2 antagonist	D2 agonist	D1 potentiator
61	Cc1ccc(-n2nnc3ccccc3c2=O)cc1C	-3	7	-0.4	-1
62	CCc1ccc(Nc2nc3c(S(=O)(=O)c4ccc(C)cc4)nnn3c3ccsc23)cc1	1	·	0.4	1
63	COc1cccc(CNC(=O)CCCc2nnc3n(C)c(=O)c4sccc4n23)c1	-2	-43	1.0	6
64	COc1ccc2c(c1)-c1nc(NC(=O)c3ccc(Cl)cc3)sc1CC2	7	·	-0.1	0

No.	D1 antagonist	D2 potentiator	D1 agonist
61	-12	3	1
62	-18	-1	0
63	-20	-6	1
64	0	5	0
